# Compound activity: PubChem BioAssay, Broad Institute
# Vaccinia stage = Vaccinia orthopox stage-specific inhibition; AID 1053133; activity change (mCherry), % (no concentration beside the values); Vaccinia-infected cells, mCherry/Venus stage reporter fluorescence; hits give low values; some inactives read as strong as hits; 0.01% of 89,000 active;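 active = mCherry past -33% and 40 or more points under the early reporter, replicates agreeing; inconclusive = past -33% without that gap or agreement; tested in A549 cells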;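 also: scaled between vehicle wells and reference inhibitor wells; 23 nL library stock went into each well; one replicate is shown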
# Vaccinia stage Venus = recorded beside Vaccinia stage, whose call it bears; activity change (Venus), %; measured here: Venus reporter, other viral stage;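 negative = less Venus signal; first of two replicates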
# * marks the source's active call; other numbers are inactive results; ? = inconclusive; · = no result given. Some of the compounds tested; the hit share may differ from the screen's.
SMILES,Vaccinia stage,Vaccinia stage Venus
C[C@H](CO)N1C[C@H](C)[C@@H](CN(C)C(=O)Nc2ccccc2)Oc2ccc(NC(=O)CCC(F)(F)F)cc2C1=O,5,3
O=C(NC1CCCCC1)N1CC2(C1)[C@@H](c1ccccc1)[C@@H](CO)N2CC1CCOCC1,1,0
CCC(=O)N(C)C[C@@H]1Oc2cc(C#CC(C)(C)O)ccc2S(=O)(=O)N([C@@H](C)CO)C[C@H]1C,9,7
C[C@@H]1CCCCO[C@@H](CN(C)S(=O)(=O)c2cccs2)[C@@H](C)CN([C@H](C)CO)C(=O)c2cc(NC(=O)Nc3ccc(C(F)(F)F)cc3)ccc2O1,19,7
Cc1ccccc1S(=O)(=O)N1CCCCN2[C@H](CO)[C@@H](c3ccc(-c4cncnc4)cc3)[C@@H]2C1,23,6
C[C@H](CO)N1C[C@H](C)[C@H](CN(C)Cc2ccccc2)Oc2ccc(NC(=O)C3CC3)cc2CC1=O,5,13
COc1ccccc1CNC(=O)C[C@H]1C=C[C@H](NC(=O)CN(C)C)[C@H](CO)O1,17,12
COCCNC(=O)C[C@H]1CC[C@H]2[C@@H](COc3ccc(NC(=O)Cc4ccccc4)cc3C(=O)N2C)O1,9,8
COc1ccc2c3c(n(C)c2c1)[C@H](CO)N(Cc1ccncc1)CC31CN(C(=O)C2CCC2)C1,16,19
CN1C(=O)c2cc(NC(=O)c3ccc(F)c(F)c3)ccc2OC[C@@H]2O[C@H](CC(=O)N3CCOCC3)CC[C@H]21,-2,-4
COc1ccccc1C#Cc1ccc2c(c1)O[C@H](CN(C)Cc1ccccc1)[C@H](C)CN([C@@H](C)CO)S2(=O)=O,-11,-3
CC(C)NC(=O)Nc1cccc2c1O[C@H](CN(C)Cc1ccc(Oc3ccccc3)cc1)[C@@H](C)CN([C@H](C)CO)C2=O,?,·
CCCC#Cc1ccc([C@H]2[C@@H](CO)N3CCCCN(S(=O)(=O)Cc4ccccc4)C[C@H]23)cc1,?,·
CC(C)NC(=O)N[C@@H]1CC[C@@H](CCNS(=O)(=O)c2ccc(F)cc2)O[C@H]1CO,6,8
COCC(=O)N(C)C[C@H]1Oc2cc(C#C[C@@H](C)O)ccc2S(=O)(=O)N([C@@H](C)CO)C[C@@H]1C,2,-8
CN1CCN(C(=O)C[C@@H]2CC[C@@H]3[C@H](COc4ccc(NC(=O)C5CCCC5)cc4C(=O)N3C)O2)CC1,18,14
Cc1noc(C)c1S(=O)(=O)Nc1ccc2c(c1)C(=O)N([C@@H](C)CO)C[C@@H](C)[C@@H](CN(C)Cc1ccc3c(c1)OCO3)OCCCC[C@H](C)O2,?,·
CCS(=O)(=O)N1CCCCN2[C@H](CO)[C@@H](c3ccc(-c4cccc(C#N)c4)cc3)[C@H]2C1,-2,-6
O=C(C1CCCC1)N1C[C@H]2[C@@H](c3ccccc31)[C@H](CO)N2C(=O)Cc1ccccn1,?,·
COc1ccc2c3c([nH]c2c1)[C@H](CO)N(C(=O)c1ccccc1)CC31CN(C(=O)Nc2cccc(F)c2)C1,?,·
COc1ccc(CN(C)C[C@@H]2Oc3ccc(NC(=O)NC(C)C)cc3C(=O)N([C@@H](C)CO)C[C@H]2C)cc1,7,0
COCC(=O)N1[C@H](C(=O)N2CCN(C)CC2)[C@@H](CO)[C@@H]2Cn3c(ccc(C4=CCCCC4)c3=O)[C@@H]21,25,3
Cc1noc(C)c1S(=O)(=O)Nc1ccc2c(c1)C(=O)N([C@H](C)CO)C[C@H](C)[C@H](CN(C)S(=O)(=O)c1ccc(F)cc1)OCCCC[C@@H](C)O2,-2,0
C[C@H]1CN([C@@H](C)CO)C(=O)Cc2cc(NC(=O)Cn3cnnn3)ccc2O[C@H]1CN(C)S(=O)(=O)c1ccc(F)cc1,25,3

# Whole records from above. Order of values: Vaccinia stage | Vaccinia stage Venus
# CC(C)NC(=O)N[C@@H]1CC[C@@H](CCNS(=O)(=O)c2ccc(F)cc2)O[C@H]1CO across the screens: 6 | 8
# O=C(NC1CCCCC1)N1CC2(C1)[C@@H](c1ccccc1)[C@@H](CO)N2CC1CCOCC1 across the screens: 1 | 0

# (further entries)
SMILES,Vaccinia stage,Vaccinia stage Venus
C[C@H](CO)N1C[C@H](C)[C@H](CN(C)C(=O)Nc2ccc3c(c2)OCO3)Oc2ccc(NS(=O)(=O)c3ccccc3)cc2C1=O,13,-5
COc1ccc(S(=O)(=O)N(C)C[C@H]2OCCCC[C@H](C)Oc3ccc(NS(=O)(=O)c4ccc(F)cc4)cc3C(=O)N([C@H](C)CO)C[C@@H]2C)cc1,-18,-18
O=C(C[C@H]1C=C[C@H](NC(=O)NC2CCCCC2)[C@@H](CO)O1)NCc1ccccc1,7,10
CCS(=O)(=O)N1CCC2(CC1)CN(CC1CCOCC1)[C@H](CO)c1c2c2ccc(OC)cc2n1C,-6,4
Cc1ccccc1S(=O)(=O)N(C)C[C@@H]1OCc2cnnn2CCCC(=O)N([C@H](C)CO)C[C@@H]1C,7,13
C[C@@H]1CN([C@@H](C)CO)S(=O)(=O)c2ccc(Br)cc2O[C@@H]1CN(C)C(=O)c1ccncc1,5,1
C[C@H](CO)N1C[C@H](C)[C@@H](CN(C)C(=O)Nc2ccccc2)Oc2ccc(NC(=O)Cn3cnnn3)cc2CC1=O,3,1
O=C(C1CC1)N1CC[C@@H]2[C@H](CO)Nc3ccc(C4=CCCCC4)cc3[C@@H]21,?,·
O=C(C[C@@H]1CC[C@@H]2[C@H](COC[C@@H](O)CN2C(=O)C2CCCC2)O1)NCc1ccncc1,13,6
C[C@@H]1CCCCO[C@@H](CN(C)C(=O)CCCN(C)C)[C@H](C)CN([C@H](C)CO)C(=O)c2cc(NS(=O)(=O)c3cn(C)cn3)ccc2O1,-5,2
COc1ccc(S(=O)(=O)Nc2cccc3c2O[C@H](CN(C)S(=O)(=O)c2ccc(OC)cc2)[C@H](C)CN([C@@H](C)CO)C3=O)cc1,-29,-18
C[C@@H]1CCCCO[C@H](CN(C)C(=O)CCCN(C)C)[C@@H](C)CN([C@@H](C)CO)C(=O)c2cc(NC(=O)C3CCCCC3)ccc2O1,1,3
CCC(=O)N1C[C@H]2[C@@H](c3ccccc31)[C@@H](CO)N2C(=O)Nc1ccccc1F,7,4
COc1ccc(NC(=O)Nc2ccc3c(c2)[C@@H]2C[C@@H](CC(=O)N[C@@H](C)c4ccccc4)O[C@H](CO)[C@@H]2O3)cc1,17,7
CCCC#Cc1ccc2c(c1)O[C@@H](CN(C)S(=O)(=O)c1cccc(OC)c1)[C@H](C)CN([C@@H](C)CO)S2(=O)=O,-24,-18
CC(C)NC(=O)N(C)C[C@H]1Oc2c(NC(=O)C3CCCCC3)cccc2C(=O)N([C@@H](C)CO)C[C@H]1C,6,12
C[C@H](CO)N1C[C@H](C)[C@H](CN(C)C(=O)CCCN(C)C)OCCCC[C@H](C)Oc2ccc(NS(=O)(=O)c3ccc(F)cc3)cc2C1=O,19,13
CCN1C[C@@H](C)[C@H](OC)CN(C)C(=O)c2cc(NC(=O)NC(C)C)ccc2OC[C@H]1C,8,20
C[C@@H]1CCCCO[C@@H](CN(C)C(=O)NC2CCCCC2)[C@H](C)CN([C@@H](C)CO)C(=O)c2cc(NC(=O)CCCCCC(=O)Nc3ccccc3N)ccc2O1,7,7
CC(=O)N1C[C@@H]2[C@H](c3ccccc31)[C@H](CO)N2S(=O)(=O)c1ccccc1,14,12
C[C@H](CO)N1C[C@H](C)[C@H](CN(C)C(=O)[C@@H]2CCCN2C)OCc2ccccc2-c2c(n(C)c3ccccc23)C1=O,-22,-20
C[C@@H]1CN([C@@H](C)CO)C(=O)c2cc(C3=CCCCC3)cnc2O[C@@H]1CN(C)CC1CCOCC1,-25,-22
C[C@H]1CN([C@@H](C)CO)C(=O)c2ccccc2-c2ccccc2CO[C@H]1CN(C)C(=O)Nc1cccc(C(F)(F)F)c1,-2,3
CCC(=O)N(CC)C[C@@H]1[C@@H](c2ccccc2)[C@H](CO)N1C(C)=O,12,15
C[C@@H]1CN([C@H](C)CO)C(=O)Cc2cc(NS(=O)(=O)c3ccc(Cl)cc3)ccc2O[C@H]1CN(C)S(C)(=O)=O,-5,5
CCNC(=O)Nc1ccc2c(c1)C(=O)N(C)[C@H]1CC[C@H](CC(=O)Nc3ccccc3)O[C@H]1CO2,-7,-3
C[C@H]1CN([C@@H](C)CO)C(=O)c2cc(NC(=O)CCN3CCOCC3)ccc2O[C@@H]1CN(C)Cc1ccc2c(c1)OCO2,6,3
CCN1[C@@H]2Cn3c(ccc(-c4ccncc4)c3=O)[C@H]1[C@@H](C(=O)NCc1ccccc1)[C@@H]2CO,-3,4
COc1ccc2c3c([nH]c2c1)[C@H](CO)N(S(C)(=O)=O)CC31CN(C(=O)Nc2ccccc2)C1,1,-3
CN(C)CC(=O)N1[C@@H](CO)[C@@H](c2ccccc2)C12CN(C(=O)C1CCCC1)C2,1,8
CO[C@H]1CC[C@H]2CCOc3c(C#N)cccc3C(=O)N(C)CCCC(=O)N(C)C[C@H]1O2,8,0
COc1ccccc1C(=O)Nc1ccc2c(c1)OC[C@@H](C)NC[C@@H](C)[C@@H](OC)CN(C)C2=O,5,0
CCNC(=O)C[C@H]1CC[C@H]2[C@@H](COC[C@H](O)CN2C(=O)c2cccnc2)O1,23,13
C[C@H]1CCCCO[C@@H](CN(C)Cc2ccc(C(=O)O)cc2)[C@@H](C)CN([C@@H](C)CO)C(=O)c2cc(NC(=O)Nc3cccc4ccccc34)ccc2O1,25,15
C[C@@H]1CN([C@H](C)CO)C(=O)Cc2cc(N(C)C)ccc2O[C@H]1CN(C)C(=O)Nc1ccc2c(c1)OCO2,8,4
CCC(=O)N[C@@H]1CC[C@H](CC(=O)NCc2cc(F)cc(F)c2)O[C@@H]1CO,9,14
CN(C)C(=O)c1ccc(-c2ccc([C@@H]3[C@@H](CO)N4CCCCN(C(=O)C5CCCC5)C[C@@H]34)cc2)cc1,10,15
C[C@@H]1CN([C@H](C)CO)C(=O)c2cc(C3=CCCC3)cnc2O[C@@H]1CN(C)C(=O)Nc1ccccc1,6,9
C[C@@H]1CN([C@H](C)CO)C(=O)Cc2cc(NC(=O)Cc3cn(C)c4ccccc34)ccc2O[C@@H]1CN(C)Cc1ccc(C(=O)O)cc1,-5,1
COc1cccc(S(=O)(=O)N(C)C[C@@H]2Oc3cc(C#CCC(C)C)ccc3S(=O)(=O)N([C@H](C)CO)C[C@@H]2C)c1,-32,-25
CN1CCN(C(=O)[C@@H]2[C@@H](CO)[C@@H]3Cn4c(cccc4=O)[C@@H]3N2Cc2cc(F)ccc2F)CC1,12,3
CCCNC(=O)N[C@@H]1CC[C@@H](CC(=O)NC2CCCCC2)O[C@@H]1CO,4,3
C[C@@H]1CN([C@H](C)CO)C(=O)c2cccc(NC(=O)NC3CCCCC3)c2O[C@H]1CN(C)S(=O)(=O)c1ccccc1,-8,-12
O=C(C1CCCCC1)N1CC2(C1)[C@H](c1ccccc1)[C@H](CO)N2Cc1nccs1,-5,2
CN(C)CC(=O)N1[C@H](CO)[C@H](c2ccccc2)C12CN(C(=O)c1ccc(F)cc1)C2,6,6
COc1ccccc1-c1ccccc1[C@@H]1[C@H](C#N)N(C(=O)C2CCOCC2)[C@H]1CO,-4,-6
C[C@H](CO)N1C[C@H](C)[C@@H](CN(C)CC2CCOCC2)Oc2ncc(-c3cncnc3)cc2C1=O,15,10
C[C@@H]1CN([C@@H](C)CO)C(=O)c2cc(NC(=O)CCCN(C)C)ccc2O[C@@H](C)CCCCO[C@H]1CN(C)Cc1ccc2c(c1)OCO2,17,3
CCCC#Cc1ccc([C@H]2[C@H]3CN(S(=O)(=O)c4ccccc4C)CC(=O)N3[C@H]2CO)cc1,-19,-11
CO[C@H]1CN(C)C(=O)c2ccc(NC(=O)C3CCOCC3)cc2OC[C@H](C)NC[C@H]1C,0,1
C[C@@H]1CCCCO[C@@H](CN(C)C(=O)C2CCCCC2)[C@H](C)CN([C@H](C)CO)C(=O)c2cc(NC(=O)Nc3ccc(F)cc3)ccc2O1,-28,-19
Cc1ccc(S(=O)(=O)N(C)C[C@@H]2Oc3cc(C#Cc4ccccc4)ccc3S(=O)(=O)N([C@@H](C)CO)C[C@H]2C)cc1,-2,-9

# Grouped by structure: those above with two or more sulfur atoms (8)
SMILES,Vaccinia stage,Vaccinia stage Venus
C[C@@H]1CCCCO[C@@H](CN(C)S(=O)(=O)c2cccs2)[C@@H](C)CN([C@H](C)CO)C(=O)c2cc(NC(=O)Nc3ccc(C(F)(F)F)cc3)ccc2O1,19,7
Cc1noc(C)c1S(=O)(=O)Nc1ccc2c(c1)C(=O)N([C@H](C)CO)C[C@H](C)[C@H](CN(C)S(=O)(=O)c1ccc(F)cc1)OCCCC[C@@H](C)O2,-2,0
COc1ccc(S(=O)(=O)N(C)C[C@H]2OCCCC[C@H](C)Oc3ccc(NS(=O)(=O)c4ccc(F)cc4)cc3C(=O)N([C@H](C)CO)C[C@@H]2C)cc1,-18,-18
COc1ccc(S(=O)(=O)Nc2cccc3c2O[C@H](CN(C)S(=O)(=O)c2ccc(OC)cc2)[C@H](C)CN([C@@H](C)CO)C3=O)cc1,-29,-18
CCCC#Cc1ccc2c(c1)O[C@@H](CN(C)S(=O)(=O)c1cccc(OC)c1)[C@H](C)CN([C@@H](C)CO)S2(=O)=O,-24,-18
C[C@@H]1CN([C@H](C)CO)C(=O)Cc2cc(NS(=O)(=O)c3ccc(Cl)cc3)ccc2O[C@H]1CN(C)S(C)(=O)=O,-5,5
COc1cccc(S(=O)(=O)N(C)C[C@@H]2Oc3cc(C#CCC(C)C)ccc3S(=O)(=O)N([C@H](C)CO)C[C@@H]2C)c1,-32,-25
Cc1ccc(S(=O)(=O)N(C)C[C@@H]2Oc3cc(C#Cc4ccccc4)ccc3S(=O)(=O)N([C@@H](C)CO)C[C@H]2C)cc1,-2,-9
